Compound activity: PubChem, National Center for Advancing Translational Sciences (NCATS)
PINK1 modulator = changes PINK1 expression. Potency, µM (highest dose often 76.6 µM), for the others: at the highest dose activation (PINK1 increase), most hits filed as activators. actives 0.2% (n = 410,000). PINK1 immunofluorescence, high-content cytometry, 24 h. AID 624263; active = well fitted activation curve with a large enough effect; inconclusive = small, poorly fitted or top-dose-only effect; inactive = flat fitted curve, though single readings scatter; cell line not stated here;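 further: % of control where 0% means no effect; nearly all actives have a fitted effect of over 65% in size; a mitochondrial uncoupler was the plate control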
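Readout is PINK1 immunofluorescence, quantified alongside mitochondrial, cell and nuclear markers by laser-scanning microplate cytometry. Cells from a stable line were exposed to compound titrations (5 concentrations) for 24 hours, with CCCP controls.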
Numbers without * were called inactive. Potency means the concentration at half of the fitted maximal effect. This is a subset; rates above refer to the full screens.

canonical_smiles | PINK1 modulator
CCn1c(-c2ccccc2F)nc2cc(NC(C)=O)cc(C(=O)NCC3CCOCC3)c21 | 0.1%
CCOC(=O)c1c(-c2ccc(OC)cc2)oc2ccc(OCc3ccccc3C)cc12 | -4.4%
CCCSCCCNC(=O)C1CCCN(c2nn3cc(-c4ccc(OC)cc4)nc3s2)C1 (stereo unspecified) | 0.3%
Cc1c(CC(=O)NCCc2ccccc2F)c(=O)oc2cc(O)c(Cl)cc12 | 0.4%
CCS(=O)(=O)N1CCc2cc(C(=O)NCc3ccc(C)cc3)ccc21 | -0.2%
CCOc1ccc(C(CC(=O)Nc2cc(C)c(Cl)cc2OC)N2Cc3ccccc3C2=O)cc1OC (stereo unspecified) | 6.2%
COc1ccc(C(=O)NCC(c2ccc3c(c2)OCO3)N2CCN(c3ccc(F)cc3)CC2)cc1 (stereo unspecified) | 0.1%
CCc1ccccc1NC(=O)Cn1c(-c2nonc2N)nc2ccccc21 | 2.5%
Cc1cc(N2CCCCC2)nc2ccc(NC(=O)CCC(=O)N3CCN(c4ccccc4)CC3)cc12 | -0.2%
COCCCNC(=O)c1sc2nc3n(c(=O)c2c1C)CCC3 | -0.9%
CCOc1ccc(CCNC(=O)CN2C(=O)COc3ccc(S(=O)(=O)N(CC)CC)cc32)cc1 | 0.8%
CCCn1cc(S(=O)(=O)c2ccc(C)cc2)c(=O)c2cc(F)c(N3CCCC3)cc21 | 3.6%
CN(C)c1ccc(C(CNS(=O)(=O)c2ccccc2)N2CCc3ccccc32)cc1 (stereo unspecified) | -0.5%
COc1ccc(C2C(=O)N(C3CCC(C)CC3)CC(=O)N2Cc2ccc(C)cc2)cc1OC (stereo unspecified) | 0.9%
CC(C)Cn1cc(C(=O)N2CCN(c3cccc(Cl)c3)CC2)c2c3ccccc3n(C)c2c1=O | -0.9%
COc1cccc(CNC(=O)CCCn2nc(C)c3sc4ccccc4c3c2=O)c1 | 0.2%
CSc1ccc(CNC(=O)Cn2nc(N3CCN(c4ccccc4)CC3)ccc2=O)cc1 | 0.6%
CCCC(=O)NCC(c1ccc2c(c1)OCO2)N1CCN(c2ccccc2)CC1 (stereo unspecified) | -1.3%
CCCCn1c(SCC(=O)Nc2ccc(F)cc2)nc2c(sc3ccccc32)c1=O | -1.7%
CCOc1cccc2sc(NC(=O)c3ccc(S(=O)(=O)N4CCCCC4)cc3)nc12 | -2.7%
O=C(COCc1cc(-c2ccc3c(c2)OCO3)on1)NCc1ccc(F)cc1 | 0.0%
COc1ccc(NC(=O)Cn2c(=O)ccc3cc(S(=O)(=O)N4CCCC4)ccc32)cc1Cl | -0.7%
COc1ccc(C(=O)Oc2c(Sc3ccc(C)cc3)c(C)nn2C(C)(C)C)c(OC)c1 | 11%
CCc1cc(/C=C/c2ccnc3ccccc23)ccc1N(C)C | 2.3%
Oc1c(C(c2ccccc2F)N2CCCC2)sc2nc(-c3ccco3)nn12 (stereo unspecified) | 0.2%
Cc1ccccc1Cn1c(=O)n(CCc2ccccc2)c(=O)c2c(C)c(C)sc21 | 1.6%
CC1CCN(S(=O)(=O)c2ccc3c(ccc(=O)n3CC(=O)NCc3ccccc3)c2)CC1 | -1.5%
COc1ccc(-c2nc3c(c(SCC(=O)Nc4ccccc4F)n2)Cc2cc(C)ccc2O3)cc1 | 3.0%
CNS(=O)(=O)c1cn(CC(=O)Nc2cccc(OC)c2)cc1S(=O)(=O)NC | -0.1%
COc1ccc(C(=O)c2cn(Cc3ccccc3OC)c3cc4c(cc3c2=O)OCO4)cc1 | -1.3%
COc1ccc(OC)c(NS(=O)(=O)c2cc3c(cc2Cl)N(C(C)=O)CCO3)c1 | -0.5%
COc1ccc(-c2nnn3c2nc(NCCc2ccc(OC)c(OC)c2)c2ccccc23)cc1 | 2.7%
COc1ccc(/C=C/C(=O)NCC2Cc3cc(Cl)cc(-c4ncccn4)c3O2)cc1 (stereo unspecified) | 1.3%
COc1ccc(C[C@@H]2C(=O)N[C@H](C)C(=O)N(C)[C@@H]3Cc4ccc(cc4)Oc4cc(ccc4O)C[C@H](C(=O)N[C@@H](C)C(=O)N[C@H](C)C(=O)N2C)N(C)C3=O)cc1 | -0.4%
CCOC(=O)c1[nH]c(C)c(CCC(=O)Nc2ccc(C)cc2Cl)c1C | -0.8%
Cc1ccc(-n2nnnc2CNC(=O)C(C)C)cc1C | -0.2%
COc1ccc(NC(=O)c2nc3nc(C)cc(C(F)F)n3n2)c(C)c1 | -0.3%
CCOC(=O)c1c(NC(=O)c2cc3nc(-c4ccc(OC)cc4)cc(C(F)(F)F)n3n2)sc(C)c1C | 0.6%
COC(=O)c1c(-c2ccc(Cl)cc2)noc1N1CCN(c2ccc(F)cc2)CC1 | -0.3%
CCCn1c2ccccc2c2cnn(CC(=O)N(C)c3ccccc3CC)c(=O)c21 | -6.9%
CCOc1ccccc1NC(=O)CCNS(=O)(=O)c1ccc2c(c1)CCN2C(=O)C1CC1 | -4.6%
COc1ccc(CCNC(=O)Cc2c(C)c3cc(OC)c(OC)cc3oc2=O)cc1 | 0.8%
COc1ccc(NC(=O)Cn2cnc3c(nc4n3CCCCC4)c2=O)c(OC)c1 | 0.8%
COc1ccc(OC)c(NC(=O)c2c(NCc3ccc(C)o3)sc3c2CCC(C)C3)c1 (stereo unspecified) | 0.5%
Cc1cnc(C)c(-c2cc(F)cc3c2OC(CNC(=O)C2CCOC2)C3)n1 (stereo unspecified) | 2.8%
COc1ccc(N2CCN(C(=O)c3c(C)oc4ncnc(N5CCCCC5)c34)CC2)cc1 | -1.3%
COc1cccc(N2CC(NC(=O)COc3ccc4ccccc4c3)CC2=O)c1 (stereo unspecified) | 1.0%
COc1ccccc1OCCn1cc(C(=O)c2cccs2)c2ccccc21 | 0.3%
COc1cccc(COC(=O)c2ccc(-c3nnn(Cc4cccc(OC)c4)n3)cc2)c1 | 0.7%
O=C(NCc1ccccc1Cl)c1ccc(Cn2c(=O)c3cccn3c3cccnc32)cc1 | 5.1%
COCCCNc1ncnc2c1nnn2C | 0.2%
CN(Cc1ccccc1)C(=O)CSc1nnc(-c2cccc(Cl)c2)o1 | 2.4%
c1ccc(-c2nc(SCC3CCCCO3)n[nH]2)cc1 (stereo unspecified) | 0.3%
COCCCNC(=O)c1ccc2c(c1)N=C(C)c1c(C)ccc(C)c1S2 | 0.9%
O=S(=O)(NCC(c1ccco1)S(=O)(=O)c1cccs1)c1ccc(Cl)cc1 (stereo unspecified) | -0.8%
COc1cccc(NC(=O)CSC2=Nc3ccccc3N=C(c3ccc(F)cc3)C2)c1 | 1.0%

Four entries from above, with each value named:
COc1cccc(NC(=O)CSC2=Nc3ccccc3N=C(c3ccc(F)cc3)C2)c1
  PINK1 modulator = 1.0%
CN(Cc1ccccc1)C(=O)CSc1nnc(-c2cccc(Cl)c2)o1
  PINK1 modulator = 2.4%
COCCCNc1ncnc2c1nnn2C
  PINK1 modulator = 0.2%
COc1cccc(COC(=O)c2ccc(-c3nnn(Cc4cccc(OC)c4)n3)cc2)c1
  PINK1 modulator = 0.7%

(continued)
canonical_smiles | PINK1 modulator
CCOc1ccc(NC(=O)Cc2csc(COc3cccc(C)c3)n2)cc1 | 2.7%
Cc1ccc(S(=O)(=O)c2nc(-c3cccs3)oc2SC(C)C)cc1 | -0.9%
COc1ccc(NC(=O)CSC2=Nc3ccccc3C3=NC(CCC(=O)NCCc4ccccc4)C(=O)N23)cc1 (stereo unspecified) | 0.3%
CCc1ccc(S(=O)(=O)c2cn(C)c3cc(N4CCOCC4)c(F)cc3c2=O)cc1 | -1.2%
Cn1c(=S)[nH]c2cc(C(=O)N3CCN(C(=O)c4ccccc4)CC3)ccc2c1=O | 0.4%
CN1C(=O)Cc2cc(S(=O)(=O)CCC(=O)N3CCN(c4ccccc4F)CC3)ccc21 | 0.1%
CCCCCOc1ccc(Cn2c(=O)oc3ccccc32)cc1 | 2.0%
COc1ccccc1Nc1nn2c(=O)c3ccc(C(=O)NCCCOC(C)C)cc3nc2s1 | 9.9%
CCCc1cc(=O)[nH]c(Nc2cc(C)ccc2OC)n1 | 1.9%
COc1ccc(OC)c(NC(=O)CN(c2ccccc2OC)S(=O)(=O)c2ccc(C)cc2)c1 | 1.1%
O=C(Nc1ccc(Br)cc1)C(Cc1ccccc1)NS(=O)(=O)c1cccc2nsnc12 (stereo unspecified) | 8.9%
Nc1nc(NCc2ccccc2Cl)c2[nH]cnc2n1 | 0.5%
Cc1ccc(C)c(CN2C(=O)c3ccccc3S(=O)(=O)c3ccc(C(=O)N4CCCC4)cc32)c1 | 0.8%
O=C(NCc1ccccc1Cl)c1ccc2c(c1)N(Cc1ccccc1)CCS2 | 0.3%
COc1cc(OC)cc(C(=O)Nc2cccc(-c3cn4ccsc4n3)c2)c1 | 1.4%
CCC1CCCCN1CCCNC(=O)c1ccc2c(c1)sc1nc(-c3ccc(F)cc3)cn12 (stereo unspecified) | 1.8%
Cc1cc(Cl)ccc1NS(=O)(=O)c1c(C(=O)N2CCCCCC2)c(C)n(C)c1C | -2.2%
CN(CCC#N)c1ccc(C=O)cc1 | 0.3%
COC(=O)c1ccc(NC(=O)c2nc(-c3ccc(Cl)cc3)n3c2CCCCC3)cc1 | 4.6%
O=C(NCc1cccc(F)c1)C1=Cc2cc(Br)ccc2OC1 | 0.0%
Cc1cc(C)cc(NC(=O)CSCc2cc(=O)c3ccc(C)c(C)c3[nH]2)c1 | -0.6%
O=C(CCCn1c(=O)[nH]c2ccccc2c1=O)NCc1ccccc1Cl | 2.6%
Cc1ccc(NC(=O)CCn2cccn2)cc1Cl | -0.9%
COc1cccc(-c2cc(C(=O)NCc3ccccc3)no2)c1 | 4.4%
CC1=C(C(=O)Nc2ccccc2)C(c2cccnc2)n2nc(SCc3ccccc3F)nc2N1 (stereo unspecified) | 1.4%
Cn1ccnc1SCC(=O)Nc1cccc(Br)c1 | 0.0%
Cc1c(Cl)cccc1NS(=O)(=O)c1ccc(NS(=O)(=O)c2ccc3c(c2)OCCO3)cc1 | 0.5%
COc1ccc2c(c1)Cc1sc(NC(=O)c3cccc(Br)c3)nc1-2 | 1.2%
COc1ccc(C(=O)N(Cc2ccco2)Cc2ccccc2F)cc1Cl | 1.7%
Cc1cccc(N2CCN(C(=O)Cc3c(C(=O)O)c(C)cn3C)CC2C)c1 (stereo unspecified) | -0.5%
CCn1ccc2c(OCC(=O)NCc3ccc(C)cc3)cccc2c1=O | -1.1%
CCN(C(=O)Cn1ncc2c1-c1cc(C)ccc1OC2)c1cc(Cl)ccc1OC | -0.7%
Cc1cccc(C(=O)Nc2nnc(SCc3cc(=O)n4cccc(C)c4n3)s2)c1 | -5.1%
COc1ccc(CCNC(=O)CS(=O)Cc2nc(-c3ccc(C)cc3)oc2C)c(OC)c1 (stereo unspecified) | 0.5%
Cc1nn(C(C)(C)C)c(OC(=O)c2c(F)cccc2F)c1Sc1ccccc1 | 2.4%
CCn1cc(CNC(=O)c2cc(-c3ccc(C)c(C)c3)nc3ccccc23)c(C)n1 | 2.0%
COc1cccc(-c2noc(CCCC(=O)NCc3ccco3)n2)c1 | 0.2%
CCn1c(C(=O)NCc2ccc(OC(C)C)cc2)cc2oc3ccccc3c21 | -0.1%
CCc1ccc(NC(=O)CSc2nnc(-c3nonc3NC(C)=O)n2-c2ccccc2)cc1 | -0.6%
CCc1ccc(C(=O)CC2(O)C(=O)N(Cc3ccc(C)cc3)c3ccccc32)cc1 (stereo unspecified) | 1.7%
COc1ccccc1-c1cc(NC(=O)COc2ccccc2Cl)n(-c2ccccc2)n1 | 12%
COc1ccc(-c2ccc3c(N)c(C(=O)Nc4ccc(C)cc4C)sc3n2)cc1OC | 23%
COc1ccc(-c2nn(C)c3sc(C(=O)N4CCN(c5cc(Cl)ccc5C)CC4)cc23)cc1OC | 0.2%
CCOc1ccc(S(=O)(=O)N2CCN(c3nc(-c4ccccc4)nc4ccccc34)CC2)cc1OCC | 0.3%
CC(C)CCNC(=O)CN1C(=O)c2cccnc2Sc2ccccc21 | -0.3%
Cc1ccc2oc3c(c(=O)c2c1)C(c1ccc(OCC(N)=O)cc1)N(Cc1ccc2c(c1)OCO2)C3=O (stereo unspecified) | 0.3%
CCOc1ccc(-c2nonc2NC(=O)c2oc3cc(C)ccc3c2C)cc1OCC | -1.5%
CC(=O)N1CCc2c(sc3c2c(=O)n(-c2cccc(Cl)c2C)c(=O)n3Cc2ccccc2C)C1 | -0.5%
Cc1sc2ncn(CC(=O)N3CCN(c4ccccc4F)CC3)c(=O)c2c1S(=O)(=O)N1CCN(c2ncccn2)CC1 | 2.4%
CC1CCN(S(=O)(=O)c2ccc3c(c2)N(CC(=O)N2CCN(c4ccccc4)CC2)C(=O)CO3)CC1 | 0.7%
CSc1ncc(C(=O)Nc2cccc(Cl)c2C)c(-c2ccccc2)n1 | 3.5%
NC(=O)CSc1nnnn1-c1cccc(O)c1 | 0.4%
CCCc1nnc(NC(=O)c2cc(=O)c3cc(Cl)ccc3o2)s1 | 3.4%
COc1ccc(Cn2ccc3nc(C)c(C(=O)N4CCN(c5ccccc5OC)CC4)cc3c2=O)cc1 | -0.6%
COc1cc(OC)c(NS(=O)(=O)c2ccc3c(c2)CCCN3C(C)=O)cc1Cl | -0.2%
O=C(CSc1nnc(COc2ccccc2)o1)Nc1cc(C(F)(F)F)ccc1Cl | 1.3%
CC(=O)c1ccc(NC(=O)Cn2c(=O)nc(-c3ccccc3)c3ccccc32)cc1 | 3.2%
